Screening data deposited in PubChem by several laboratories.
Yeast UUG start: modulators of yeast start codon fidelity, primary screen, whole organism, S. cerevisiae, single point, plate reader; activity score, % at 18.7 µM; 350,000 compounds, 0.13% hits; S. cerevisiae UUG-firefly luciferase reporter, luminescence/redox ratio;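 active = replicate mean at a twofold rise or more, about +100% in these data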;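 also: firefly luciferase made from a UUG start codon reports start codon fidelity; reporter light over untreated wells divided by growth signal over untreated wells; some hits fall short of that in this replicate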
MT1-MMP act inh: blockers of MT1-MMP proenzyme processing, primary screen, HT1080 RFP-PRO-GFP cells, GFP/RFP fluorescence; 360,000 compounds, 0.061% hits; GFP/RFP ratio change, % at 20 µM; GFP/RFP ratio fluorescence, overnight; percent of plate control window, DMSO zero; AID 651647, 2012;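 active = GFP/RFP ratio change of at least 30% with cell ATP level not reduced by more than half and red fluorescence within 50% of control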; also: strong numbers were not always called active
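Material – HT1080 RFP-PRO-GFP cells · Control set – DMSO wells and RFP-L50D-GFP cells · Incubation – overnight cell settling, then overnight compound exposure, 37 °C, 5% CO2 · Compound dosing – single-point 20 µM compound, 1% DMSO · Read-out – GFP/RFP fluorescence ratio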
CSC inhib: cancer stem cell viability inhibitors, primary screen, luminescence. inhibition, % at 7.5 µM. 300,000 compounds, 1.1% hits. cancer stem cell-like cells viability;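 active = mean at 75% or more and at least half the replicates too; inconclusive = mean and replicates disagree; tested in HMLE shEcad cells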;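 also: 0% = median of negative and 100% = median of positive control wells; the first replicate is given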
PABP FP inh: PABP poly(A) RNA binding inhibitors, primary screen, biochemical, fluorescence polarization, uHTS; AID 2014, 2009; 290,000 compounds, 1% hits; Polyadenylate-binding protein 1 (Homo sapiens), P11940; inhibition, % at 35 µM;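 active = 50% or more with normal probe brightness, or confirmed in later tests; inconclusive = above 50% with abnormal brightness, or retests that disagree; inactive = below 50% or failed in later tests; about a fifth of its hits are not listed in these tables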;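 also: calls also rest on retests at 20 µM and on dose response follow-up; controls were probe without protein and protein plus probe with vehicle; some compounds called inactive have numbers as strong as hits; many hits fall short of the cut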
Target sequence (P11940 whole entry, looked up): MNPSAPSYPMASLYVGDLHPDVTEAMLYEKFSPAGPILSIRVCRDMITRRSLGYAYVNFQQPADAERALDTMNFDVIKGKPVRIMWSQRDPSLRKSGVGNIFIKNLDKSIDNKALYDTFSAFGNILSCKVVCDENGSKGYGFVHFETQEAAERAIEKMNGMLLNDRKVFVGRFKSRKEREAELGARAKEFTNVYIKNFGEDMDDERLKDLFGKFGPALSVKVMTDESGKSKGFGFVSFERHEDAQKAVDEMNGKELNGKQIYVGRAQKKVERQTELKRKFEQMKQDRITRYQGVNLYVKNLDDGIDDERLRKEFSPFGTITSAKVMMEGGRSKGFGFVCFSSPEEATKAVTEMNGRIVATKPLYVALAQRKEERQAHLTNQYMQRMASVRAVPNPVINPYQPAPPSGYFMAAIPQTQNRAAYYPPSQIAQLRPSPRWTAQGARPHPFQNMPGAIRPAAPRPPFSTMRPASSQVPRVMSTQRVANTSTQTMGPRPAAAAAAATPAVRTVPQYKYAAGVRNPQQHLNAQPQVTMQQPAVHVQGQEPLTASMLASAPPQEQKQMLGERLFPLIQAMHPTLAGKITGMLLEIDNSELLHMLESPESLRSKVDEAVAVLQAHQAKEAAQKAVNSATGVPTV
eIF4H inh: human eIF4H binding inhibitors, primary screen, translation initiation inhibitor project, biochemical, uHTS, fluorescence polarization; inhibition, % at 35 µM; Eukaryotic translation initiation factor 4H (Homo sapiens), Q15056; 290,000 compounds, 0.94% hits; eIF4H fluorescence polarization binding assay;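 active = 50% or more with normal probe brightness, or confirmed in later tests; inconclusive = above 50% with abnormal brightness, or retests that disagree; inactive = below 50% or failed in later tests; about a fifth of its hits are not listed in these tables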;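 also: calls also rest on retests at 20 µM and on dose response follow-up; 0% = protein and probe with vehicle and 100% = probe without protein; strong numbers were not always called active; many hits fall short of the cut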
HIV Env fusion: inhibitors of HIV-1 Env-driven cell-cell fusion, primary screen, HeLa-JRFL effector, CEM21 target cells, luciferase; inhibition, % at 12.3 µM; 360,000 compounds, 1.1% hits; AID 651610, 2012;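 active = mean replicate inhibition score of at least 50 and every replicate individually at or above 50; inconclusive = only one of the two criteria met; inactive = mean below 50 and not all replicates reaching 50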;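 also: 0% = plate neutral controls and 100% = maraviroc near 300 nM; one replicate is shown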
Rce1 inhib: yeast Rce1p protease inhibitors, primary screen, biochemical, fluorescence, cell-free homogeneous; yeast membranes, quenched prenylated peptide cleavage fluorescence; AID 2563, 2010; 290,000 compounds, 0.27% hits; calls only;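 active = fall in fluorescence gain of 50% or more versus controls, with final raw signal at or below 3038400; inconclusive = same 50% fall but final raw signal above 3038400; inactive = fall in fluorescence gain under 50%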;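 also: plate controls were neutral control wells for no effect and wells lacking membranes for full effect; tested at 10 µM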
eIF4H inh retest: also measured in eIF4H inh; calls as there; inhibition, %; compound at 20 µM; confirmation average;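 mean of two retest wells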
PABP FP inh retest: recorded beside PABP FP inh, whose call it bears; inhibition, %; compound at 20 µM; confirmation repeats;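 mean of two retest wells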
MT1-MMP act inh RFP: further read-out of MT1-MMP act inh, marked with its call; RFP signal change, %; measured here: RFP expression control read;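 0 = vehicle wells; hits needed this value within 50% of zero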
Active calls of the source: *; i = inactive; ? = inconclusive; · = no result given; & = joins results of further samples.

The first five entries, to show the layout:
SMILES	Yeast UUG start	MT1-MMP act inh	MT1-MMP act inh RFP	CSC inhib	PABP FP inh	eIF4H inh	HIV Env fusion	Rce1 inhib	others
Cc1cccc(OCC(=O)Nc2cccc(-c3nnc(-c4ccccc4)o3)c2)c1C	-14	3	1	3	-2	1	-60	i
Cc1ccc(CS(=O)(=O)Cc2ccc(C(=O)NC3CCCCCC3)o2)cc1	-5	1	-4	-11	·	·	-18	i
NS(=O)(=O)Oc1ccccc1	-14	2	3	-13	4	-10	-2	i
CC1CCCC(NC(=O)COC(=O)CCC2CCCC2)C1C (stereo unspecified)	-17	-5	2	0	2	-6	-18	i
C[C@H]1CN([C@@H](C)CO)C(=O)c2cc(Br)cnc2O[C@H]1CN(C)C(=O)c1cnccn1	-12&-13	-2	4	·	·	·	3	·

The list itself, from the first entry:
SMILES	Yeast UUG start	MT1-MMP act inh	MT1-MMP act inh RFP	CSC inhib	PABP FP inh	eIF4H inh	HIV Env fusion	Rce1 inhib	others
Cc1cccc(OCC(=O)Nc2cccc(-c3nnc(-c4ccccc4)o3)c2)c1C	-14	3	1	3	-2	1	-60	i
Cc1ccc(CS(=O)(=O)Cc2ccc(C(=O)NC3CCCCCC3)o2)cc1	-5	1	-4	-11	·	·	-18	i
NS(=O)(=O)Oc1ccccc1	-14	2	3	-13	4	-10	-2	i
CC1CCCC(NC(=O)COC(=O)CCC2CCCC2)C1C (stereo unspecified)	-17	-5	2	0	2	-6	-18	i
C[C@H]1CN([C@@H](C)CO)C(=O)c2cc(Br)cnc2O[C@H]1CN(C)C(=O)c1cnccn1	-12&-13	-2	4	·	·	·	3	·
Cc1ccsc1C=Nc1c(C)n(C)n(-c2ccccc2)c1=O	-23	1	-1	-8	2	-1	1	i
COc1cc(C2/C(=C(\O)c3ccc4c(c3)CC(C)O4)C(=O)C(=O)N2CC2CCCO2)cc(OC)c1OC (stereo unspecified)	-3	1	1	·	-13	-4	8	i
CC(=O)OC(=C(OC(C)=O)c1ccccc1)c1ccccc1	-29	4	8	·	·	·	-3	·
CN1CCN(c2ccccc2NC(=O)c2ccc(-c3ccc(Cl)cc3Cl)o2)CC1	-6	4	-7	101*	-13	3	18	i
O=C(O)c1ccc(CSCc2ccco2)cc1	4	1	5	·	3	14	·	i

A draw from above in order of molar mass, lowest first.
SMILES	Yeast UUG start	MT1-MMP act inh	MT1-MMP act inh RFP	CSC inhib	PABP FP inh	eIF4H inh	HIV Env fusion	Rce1 inhib	others
NS(=O)(=O)Oc1ccccc1	-14	2	3	-13	4	-10	-2	i
Cc1ccsc1C=Nc1c(C)n(C)n(-c2ccccc2)c1=O	-23	1	-1	-8	2	-1	1	i
COc1cc(C2/C(=C(\O)c3ccc4c(c3)CC(C)O4)C(=O)C(=O)N2CC2CCCO2)cc(OC)c1OC (stereo unspecified)	-3	1	1	·	-13	-4	8	i

(list continues)
SMILES	Yeast UUG start	MT1-MMP act inh	MT1-MMP act inh RFP	CSC inhib	PABP FP inh	eIF4H inh	HIV Env fusion	Rce1 inhib	others
CC(C1CC1)N(C(=O)c1ccccc1O)c1ccccc1 (stereo unspecified)	-14	2	5	-3	9	-9	21	i
Cc1ccc(CN2CCN(CC(=O)NCc3ccc(Cl)cc3)C2=O)cc1	-4	1	-1	-1	-3	-8	·	i
O=C(CCC1CCCC1)Nc1ccc(Br)cn1	-3	-3	-7	-9	-3	2	-38	i
CCOc1ccc(C(=O)NCC(=O)OCc2c(F)cccc2Cl)cc1	·	5	0	-16	-6	-10	7	i
Cc1ccccc1C(=O)Nc1ccnn1C1CCN(Cc2c(C)n(C)c3ccccc23)CC1	-25	-2	1	·	1	12	4	i
Cc1ccc(NC(=S)Nc2ccc(F)cc2)c(C)c1	-28	5	4	-1	-5	38	15	i
CCOC(=O)c1c(/N=C/c2ccc(OC)cc2O)sc2c1CCN(C)C2	-8	-7	0	-2	14	13	-10	i
COc1cccc(CN2CCN(C(=O)[C@H]3O[C@@H](n4cnc5c(N)ncnc54)[C@H](O)[C@@H]3O)CC2=O)c1	-8	1	7	·	·	·	6	·
COc1ccc(NC(=O)CN2CCCCC2)cc1S(=O)(=O)N1CCCCC1	-9	5	4	-17	·	·	10	·
CCOC(=O)CSc1nnc(CNC(=O)c2cccs2)n1-c1cc(OC)ccc1OC	-14	3	7	·	4	10	·	i

Next section; it opens with the two that closed the last part.
SMILES	Yeast UUG start	MT1-MMP act inh	MT1-MMP act inh RFP	CSC inhib	PABP FP inh	eIF4H inh	HIV Env fusion	Rce1 inhib	others
COc1ccc(NC(=O)CN2CCCCC2)cc1S(=O)(=O)N1CCCCC1	-9	5	4	-17	·	·	10	·
CCOC(=O)CSc1nnc(CNC(=O)c2cccs2)n1-c1cc(OC)ccc1OC	-14	3	7	·	4	10	·	i
CCOP(C)(=O)C1(C(=O)OCc2ccccc2)CC1 (stereo unspecified)	-1	1	0	-6	8	0	·	i
c1csc(CNc2ccc3c(c2)OCCO3)c1	·	-3	-1	-7	2	86	-71	·	eIF4H inh retest=-1;PABP FP inh retest=2
CN(C)C(CNC(=O)CCCc1c[nH]c2ccccc12)c1ccco1 (stereo unspecified)	-14	12	7	-4	5	-5	-242	i
CN(c1ccccc1C(=O)Nc1cccc([N+](=O)[O-])c1)S(C)(=O)=O	0	-7	2	-4	9	12	-25	i
CN1CCN(c2ccc(C(F)(F)F)cc2NC(=O)c2ccco2)CC1	-5	4	3	-2	-3	-7	-20	i
CCOC(=O)c1c(N2C(=O)Nc3ccccc3N2O)n[nH]c1-c1cccc(OC)c1	-2	-6	0	-7	0	1	-14	i
COc1ccc(N2C(=O)CCC(C(=O)N3CCCCCC3)C2c2ccc(OC)c(OC)c2)cc1 (stereo unspecified)	-5	1	8	-17	0	-12	-18	i
C/C(=N\NC(=O)c1ccc(Br)cc1)c1cccnc1	-11	-2	-1	-2	-4	-8	-20	i
C/C(=N\NC(=O)CC1N=C(Cc2ccccc2)NNC1=O)c1ccccc1 (stereo unspecified)	-12	-5	-3	-2	-8	-8	5	i
CCN1CCCC1CNS(=O)(=O)c1ccc(Cl)c(C(F)(F)F)c1 (stereo unspecified)	-17	5	6	-12	-11	-4	1	i
CCC(C)(C)NC(=O)C(c1ccc(C)cc1)N(Cc1ccco1)C(=O)Cn1nnc2ccccc21 (stereo unspecified)	-12	-9	-6	-7	0	5	·	i
COc1ccccc1CNc1nc(NCC2CC2)nc2ccsc12	3	-3	-21	·	·	·	35	·
CCOC(=O)c1cnc2c(c(C)nn2CC)c1NCCN1CCOCC1	·	1	1	-8	1	1	29	i
CSc1nc2ccccc2n1CC(=O)Nc1cc(C(F)(F)F)ccc1N1CCOCC1	·	-6	-9	-18	-3	0	·	·
CC(C)(C)Nc1c(-c2ccc(O)cc2)nc2ccc(Cl)cn12	-10	-3	1	-14	-10	7	18	i
CCOC(=O)Cn1c(CCC(=O)O)ccc1-c1ccc(F)cc1	-17	2	8	-5	-18	16	0	i
Cc1cc(C(=O)c2cnc(/N=C/N(C)C)s2)cc(C)c1O	-2	11	9	4	4	14	-52	i
COc1cc(NC(=O)C2=C(C)OCCS2)c(Cl)cc1C(=O)NCCN1CCN(C)CC1	-4	1	4	-3	-8	-9	4	i
Cc1ccc2c(CSc3nnc4ccccn34)cc(=O)oc2c1C	-12	0	-1	8	6	14	·	i
COC(=O)c1sc2nc(N)c(C#N)cc2c1N	·	3	5	-14	1	19	·	i
CCCc1cc(C(=O)Nc2cccc(C(C)=O)c2)no1	-17	1	1	4	-4	63	·	i	eIF4H inh retest=-8;PABP FP inh retest=5
CCN(CC)CCCNC(=O)c1csc(Nc2cccc3ccccc23)n1	-2	-3	1	6	-11	-4	13	i
COc1ccc(Cl)cc1CN1C(=O)NC2(CCCCCC2)C1=O	0	1	-2	5	4	-2	-4	i
CCNC(=S)N(Cc1cc2cc(C)ccc2[nH]c1=O)C1CCCC1	·	0	-10	-8	7	-2	11	i
Cc1cc(C)cc(NC(=O)c2c(C)nc3ccccn23)c1	·	2	-2	-1	-2	-14	-3	i
CCn1c(C)cc(C(=O)COC(=O)c2cccnc2SC)c1C	-15	-1	0	-3	·	·	-126	·
CSCc1nnc(NC(=O)c2ccc(S(=O)(=O)N3CCCCC3C)cc2)o1 (stereo unspecified)	-24	1	1	19	-2	10	-1	i
O=C(O)CCS(=O)(=O)c1cc(Br)cc2c1N(C(=O)C1CC1)CC2	·	0	2	-14	6	-5	-1	i
Cn1c2c(c3ccccc31)CC/C2=N\O	3	-2	0	·	7	12	·	i
CCCCn1nnnc1SCC(=O)Nc1cccc(C)n1	-7	1	2	-11	7	4	-12	·

Reprinted from the part before: 2 entries; new compounds follow.
SMILES	Yeast UUG start	MT1-MMP act inh	MT1-MMP act inh RFP	CSC inhib	PABP FP inh	eIF4H inh	HIV Env fusion	Rce1 inhib	others
Cn1c2c(c3ccccc31)CC/C2=N\O	3	-2	0	·	7	12	·	i
CCCCn1nnnc1SCC(=O)Nc1cccc(C)n1	-7	1	2	-11	7	4	-12	·
O=C(Nc1ccc(N2CCOCC2)cc1)C1CCN(S(=O)(=O)Cc2ccccc2)CC1	-10	-1	2	-11	1	1	·	i
CCCn1c2ccccc2c2cnn(CC(=O)NCCCN3C(C)CCCC3C)c(=O)c21 (stereo unspecified)	-4	0	1	-9	6	0	1	i
O=c1sc2ccccc2n1CCCOc1ccccc1	-8	-18	-15	19	-2	-11	-196	i
Cc1cccc(C)c1NC(=O)COC(=O)COc1ccc2c(C)cc(=O)oc2c1	-11	10	4	-4	3	-1	-17	i
Cn1ccnc1C(O)c1ccc(OCc2ccccc2)cc1 (stereo unspecified)	-18	-2	1	-13	-9	4	·	i
Cc1cc(NS(=O)(=O)Cc2ccccc2)no1	-7	2	4	-12	-2	-8	-80	i
CC1(C)Cc2ccccc2C(NNC(=O)c2ccccc2)=N1	·	1	0	-5	5	0	?	i
O=C(CSc1ncccc1C(=O)O)NCc1ccc(F)cc1	-14	-1	3	0	10	-8	·	i

This is a subset. The share of hits here may be higher or lower than overall.
